# Anaer choline gr: blocks anaerobic gram-negative growth on choline; calls only; AID 1963822; 55,000 compounds, 0.2% hits; Gram-negative bacterium anaerobic choline minimal medium, absorbance growth; hits give low values; many inactives read as strong as hits in the columns shown;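 active = growth z-score on choline under -2 at 7 or 20 h with little or no fall on glycerol, limits in tiers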;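 also: stock transfer was 300 nL into about 50 µL; the organism is E. coli; final concentration not given here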
# Anaer choline gr early: also measured in Anaer choline gr; calls as there; z-score; measured here: choline growth z-score, timepoint 1;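 score of optical density at 7 h as mean of two plates; lower means less growth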
# An asterisk follows results filed as active; i = inactive. This is a subset (hit frequency here may not be typical).
Anaer choline gr | Anaer choline gr early | molecule
i | 1.2 | COc1ccc(CNC(=O)CSc2nnc(C(=O)Nc3ccc(Cl)cc3)s2)c(OC)c1
i | -0.41 | NCC[C@H](O)C(=O)N[C@@H]1C[C@H](N)[C@@H](O[C@H]2O[C@H](CN)[C@@H](O)[C@H](O)[C@H]2O)[C@H](O)[C@H]1O[C@H]1O[C@H](CO)[C@@H](O)[C@H](N)[C@H]1O
i | -0.13 | Cc1ccc(NC(=O)CSCc2noc(-c3ccc(C)cc3)n2)cc1
i | 0.93 | Cc1cccc(NC(=O)CCc2nc(CSc3nc4ccccc4o3)no2)c1C
i | -0.74 | Cc1nc(-c2cc(S(=O)(=O)N3CCCC(C(=O)N4CCOCC4)C3)c(C)s2)no1 (stereo unspecified)
i | -0.04 | CCc1nn2c(=O)cc(CSc3nnc(-c4cccc(C)c4)o3)nc2s1
i | 0.55 | Cc1cc(NC(=O)CCc2nc(CSc3nc(-c4ccc(Cl)cc4)cs3)no2)no1
i | 0.83 | CC(C)C1COC(c2cccn2Cc2ccccc2Br)=N1 (stereo unspecified)
i | -0.54 | Cc1cc(C2CCCN2C(=O)c2cnn3cc(Br)cnc23)on1 (stereo unspecified)
i | -2.9 | O=S1(=O)c2ccccc2NC(c2ccc(F)c(F)c2)N1Cc1ccc(F)cc1Cl (stereo unspecified)
i | 0.79 | CCn1c(=O)c(N2CCCC(C(=O)NCCc3c[nH]c4ccc(Cl)cc34)C2)nc2ccccc21 (stereo unspecified)
i | 1 | O=c1[nH]c2cc(-c3noc(C4CCCCC4)n3)ccc2n1C1CCCC1
i | 2.3 | Cc1ccccc1-c1nc(S(=O)(=O)c2ccccc2)c(N2CCC(C)CC2)o1
i | -0.04 | COc1ccc(NC(=O)CSc2nnc(NC(=O)Nc3ccc(OC)cc3)s2)cc1
i | -0.06 | CN1CCc2nc3sc(C(=O)c4ccc(F)cc4)c(N)c3cc2C1
i | -0.65 | CCCCn1c(=O)c2sccc2n2c(CCC(=O)NC)nnc12
i | 3.2 | CCCc1ccc(S(=O)(=O)N2CCCC(C)(C(=O)NCc3ccccc3C)C2)cc1 (stereo unspecified)
i | -0.47 | Cc1ccc(OCC(=O)Nc2noc(-c3ccccc3)n2)cc1
i | 0.09 | CC(=O)Nc1ccc(C)cc1-c1nc2ccccc2n(C(C)C(=O)Nc2ccc(C)cc2C)c1=O (stereo unspecified)
i | 0.39 | Cc1ccc2c(c1)c1c(c(=O)n(-c3ccccc3)c(=O)n1Cc1cc(=O)n3ccccc3n1)n2C
i | -0.21 | Cc1ccc2c(c1)C(C)(C)C(=O)N2CC(=O)N1CCCC1
i | -1.6 | Cc1c(C)n(-c2ccccc2)c2ncn(CCC(=O)NCc3cccnc3)c(=O)c12
i | -0.42 | C=CCNC(=O)c1sc(N2CCCC2)nc1N
i | -2 | O=C(Nc1ccc(N2CCOCC2)cc1)c1cccc(-c2cc(N3CCCC3)ncn2)c1
i | -0.86 | O=C(Nc1cc(F)ccc1F)N1CCN(Cc2nc3cccnc3n2-c2cccc(F)c2)CC1
i | 0.43 | CC(C)(Sc1cc(C(C)(C)C)c(O)c(C(C)(C)C)c1)Sc1cc(C(C)(C)C)c(O)c(C(C)(C)C)c1
i | 0.61 | CN(C)c1ccc(C(CNS(C)(=O)=O)N2CCOCC2)cc1 (stereo unspecified)
i | 0.65 | Cc1noc2nc(C)n(CC(=O)NCCN3CCCC3)c(=O)c12
i | -0.76 | CCOc1ccc(OCC)c(NC(=O)C2CCCN(c3nc4cccnc4s3)C2)c1 (stereo unspecified)
i | -0.66 | O=C(NCCc1cnc[nH]1)c1ccc(CN2C(=O)CCn3nc(-c4ccc(Cl)cc4)cc32)cc1
i | -0.25 | CCc1nc(-c2csc(S(=O)(=O)N3CCC(C(=O)NC4CCCCC4)CC3)c2)no1
i | -0.59 | CCc1cc(Sc2nnc(NC(=O)Nc3cccc(Cl)c3)s2)n2ncnc2n1
i | 1.8 | Cn1cc(C(=O)Nc2cccc(Br)c2)c2[nH]c(=O)n(-c3ccccc3)c(=O)c21
i | -0.4 | Cc1cc(=O)c(C(=O)N[C@@H](C(=O)N[C@@H]2C(=O)N3C(C(=O)O)=C(CSc4nnnn4C)CS[C@H]23)c2ccc(O)cc2)c[nH]1
i | -0.08 | Cc1ccc(-n2ccc(=O)c(C(=O)Nc3cccnc3)n2)cc1
i | -0.56 | COc1ccc(-c2nc3sccn3c2Nc2ccc3c(c2)OCCO3)cc1
i | -0.45 | COCCCNC(=O)N1CCN(Cc2nc3cccnc3n2-c2ccc(F)cc2)CC1
i | -1.8 | CCCN1C(=O)c2ccc(-c3ccccc3)n2CC1(C)C(=O)NC1CCCC1 (stereo unspecified)
i | 0.65 | C=C1CCC(O)CC1=CC=C1CCC[C@]2(C)C(C(C)CCCC(C)C)CC[C@@H]12 (stereo partly specified)
i | -0.26 | O=C1C(=O)N(C2CCN(C(=O)c3ccncc3)CC2)CCN1Cc1ccc(F)cc1
i | 0.42 | CCN(CC)CCN(C(=O)c1ccccc1Cl)c1nc2cc3c(cc2s1)OCO3
i | -0.54 | CC(C)(C)NC(=O)N1CCOc2ccc(COCc3ccccc3F)cc2C1
i | 0.99 | CCn1c(=O)[nH]c2c(C(=O)N3CCCC(C)C3)snc2c1=O (stereo unspecified)
i | 1.7 | COC(=O)c1ccccc1NC(=O)CSc1nc2ccccc2nc1Cc1ccccc1OC
i | 0.17 | CCCCCC(=O)Nc1ncc2c(n1)CC(c1ccc(C(C)(C)C)cc1)CC2=O (stereo unspecified)
i | -1.6 | Cc1ccc(S(=O)(=O)N2CCCN(c3nc4cc(Cl)ccc4n4cccc34)CC2)cc1
i | -3.3 | CC12C=CC(=O)C=C1CCC1C2=CCC2(C)C1CC[C@@H]2C(=O)CN1CCN(c2cc(N3CCCC3)nc(N3CCCC3)n2)CC1 (stereo partly specified)
i | -0.88 | Cc1ccc(C2CCCN2C(=O)c2cc(C(C)C)no2)cc1 (stereo unspecified)
i | -0.28 | Clc1ccc(CSc2nnc(-c3ccc(Br)cc3)o2)cc1
i | 0.71 | CCC1Oc2ccc(Cl)cc2N(CC(=O)Nc2nnc(Cc3cn(C)c4ccccc34)s2)C1=O (stereo unspecified)

# Shown with tabs: part of the list above.
SMILES	Anaer choline gr	Anaer choline gr early
CCc1nc(-c2csc(S(=O)(=O)N3CCC(C(=O)NC4CCCCC4)CC3)c2)no1	i	-0.25
C=C1CCC(O)CC1=CC=C1CCC[C@]2(C)C(C(C)CCCC(C)C)CC[C@@H]12 (stereo partly specified)	i	0.65
CCc1nn2c(=O)cc(CSc3nnc(-c4cccc(C)c4)o3)nc2s1	i	-0.04
Cc1c(C)n(-c2ccccc2)c2ncn(CCC(=O)NCc3cccnc3)c(=O)c12	i	-1.6

# Later entries.
Anaer choline gr | Anaer choline gr early | molecule
i | 1.1 | CC(C)NC(=O)c1cn2c3c(ccc(Cl)c3c1=O)OC(C)C2 (stereo unspecified)
i | -0.37 | Cc1nc(N2CCOCC2)cc(N2CCN(C(=O)c3ccco3)CC2)n1
i | -0.37 | CCS(=O)(=O)N1CCC(n2cnc3cccnc32)CC1
i | -0.9 | COc1cccc(S(=O)(=O)Nc2ccc(C(=O)N3CCCC(C(=O)NC(C)C)C3)cc2)c1 (stereo unspecified)
i | 1.3 | CN(C)S(=O)(=O)c1ccc2nc(NS(=O)(=O)c3ccc(Br)cc3)sc2c1
i | 0.8 | Cc1c(CC(=O)NCCC2=CCCCC2)c2c(=O)n(C)c(=O)n(C)c2n1C
i | 0.29 | O=C(C1CCN(c2ncnc3c2oc2ccccc23)CC1)N1CCN(c2ccccc2F)CC1
i | 0.09 | Cc1cc(=O)[nH]c2c1c(=O)[nH]n2C(C)C
i | 0.88 | O=C(c1ccco1)N1CCCC(Nc2ncnc3c2CCC3)C1 (stereo unspecified)
i | 0.86 | CCOCCCNC(=O)c1ccc(-c2cc(Oc3ccc(OC)cc3)ncn2)cc1
i | 0.61 | Cc1nn(-c2ccccc2)c(C)c1CCc1nn2c(-c3cccc(F)c3)nnc2s1
i | 0.17 | COc1ccc(CNC(=O)c2cccn3c(=O)c4c5c(sc4nc23)CCCC5)cc1
i | -0.26 | Cc1noc(C)c1CN1CCCN(S(C)(=O)=O)CC1
i | 0.72 | O=C(Nc1ccc2c(c1)OCCO2)N1CCC(n2cnc3ccccc3c2=O)CC1
i | 0.39 | CCCn1c(=O)c2c(nc3n2CCCCN3c2ccc(OCC)cc2)n(C)c1=O
i | -0.16 | Cc1ccnc(NC(c2cccnc2)c2c(NC(=O)c3ccccc3)sc3c2CCCC3)c1 (stereo unspecified)
i | -0.17 | CCC(C(=O)Nc1ccc2c(c1)OCO2)n1nc(-c2ccccc2)c2c(c1=O)CCCC2 (stereo unspecified)
i | 0.26 | CCOC(=O)c1c(NC(C)=O)c2c3c(sc2n1CC(=O)Nc1ccc(Cl)cc1)CCCC3
i | -0.07 | Cc1oc2ncn(CCC(=O)NC3CCCC3)c(=O)c2c1C
i | 0.16 | Cc1cc(C)c2c(n1)SCCN2C(=O)Nc1ccc(C(=O)NCCN2CCCCC2C)cc1 (stereo unspecified)
i | -1.6 | CC(C)(C)C(=O)NCC(c1cccnc1)N1CCOCC1 (stereo unspecified)
i | 0.44 | O=C(CSc1nnc2ccc(-c3ccccc3)nn12)NCc1ccc2c(c1)OCO2
i | 1.2 | O=S(=O)(c1ccc2nc(Nc3cccc(F)c3)ccc2c1)N1CCCCC1
i | -0.29 | CC(NC(=O)c1ccccc1NC(=O)c1nsc2ccccc12)c1ccccc1 (stereo unspecified)
i | 0.11 | c1cncc(-c2nn3c(-c4cccnc4)nnc3s2)c1
i | -0.62 | CCCCOc1cccc(C2C3=C(CC(C)(C)CC3=O)Nc3ccccc3N2C(=O)CC)c1 (stereo unspecified)
i | -0.59 | Cc1nn(-c2nc3ccccc3s2)c2c1C(c1ccc(F)c(F)c1)CC(=O)N2 (stereo unspecified)
i | 0.36 | CCCCn1c(SCc2nc(-c3cc(OC)cc(OC)c3)no2)nc2cc3c(cc2c1=O)OCO3
i | -1.2 | CCOc1ccc(NS(=O)(=O)c2c(C)sc(C)c2-c2n[nH]c(C)c2C)cc1
i | 0 | CCSc1nc2ccc(NS(=O)(=O)c3cc(F)cc(F)c3)cc2s1
i | 1 | Cc1ccc(NC(=O)CCc2c(C)[nH]n(-c3nc(C)cs3)c2=O)c(C)c1
i | 0.38 | Cn1c(=O)c2nc(SCC(=O)N3CCOCC3)n(C)c2n(C)c1=O
i | 0.99 | N[C@@H](Cc1c[nH]c2ccccc12)C(=O)O
i | -1.4 | COc1ccc(CN(C)c2cc(=O)n3nc(-c4ccccc4)sc3n2)cc1
i | -0.6 | O=C(Nc1ccc(F)c(F)c1)C1Nc2ccc(Cl)cc2S(=O)(=O)N1 (stereo unspecified)
i | 0.76 | CCC1CCCCN1C(=O)CN1C(=O)CSc2ccc(S(=O)(=O)N(CC)CC)cc21 (stereo unspecified)
i | -1.4 | O=C(Nc1ccccc1F)c1nc(-c2ccccc2)n(-c2ccccc2Cl)n1
i | 1.1 | CC1=C(c2ccc(C)cc2)S(=O)(=O)N(CC(=O)N2CCN(c3ccccc3)CC2)C1=O
i | 0.94 | CCCCN1CCN(S(=O)(=O)c2cc(-c3nnc(C(C)C)o3)co2)CC1
i | 0.7 | COc1cc(OC)cc(C(=O)Nc2nc(CC(=O)Nc3ccc(OC)cc3OC)cs2)c1
i | -0.73 | CCc1cc(-c2csc(S(=O)(=O)NCC3CCN(Cc4ccc(Cl)cc4)CC3)c2)on1
i | -0.15 | Cc1ccc(-n2nc(C(=O)N3CCN(c4ccccn4)CC3)c3ncn(C)c(=O)c32)cc1
i | 0.42 | Cc1nn(-c2ccccc2)c(C)c1CCc1nn2c(-c3ccccc3)nnc2s1
i | -0.4 | CCn1cnc(S(=O)(=O)N2CCCC(C(=O)Nc3nccs3)C2)c1 (stereo unspecified)
i | -1.1 | O=S1(=O)C[C@H](N2CCc3ccccc3C2)[C@@H](S(=O)(=O)c2ccc(F)cc2)C1
i | -0.53 | COc1ccc(CN2C(=O)CC(c3ccc(OC)cc3)CC2=O)cc1
i | 1.8 | Cc1cc(NC(=O)COc2cccc3c(=O)n(C)ccc23)no1
i | 1.7 | O=C(COc1ccccc1)Nc1ccc2nc(NS(=O)(=O)c3ccccc3)sc2c1
i | 0.53 | CCn1c(=O)[nH]c(=O)c2cnc(-c3ccc(Cl)cc3)nc21
i | 1.1 | O=C(C1=C2c3[nH]c4ccccc4c3CCN2C(=O)CC1)c1ccccc1

# Arranged by count of non-hydrogen atoms (rising): part of the list above
Anaer choline gr | Anaer choline gr early | molecule
i | 0.53 | CCn1c(=O)[nH]c(=O)c2cnc(-c3ccc(Cl)cc3)nc21
i | -1.1 | O=S1(=O)C[C@H](N2CCc3ccccc3C2)[C@@H](S(=O)(=O)c2ccc(F)cc2)C1
i | -0.59 | Cc1nn(-c2nc3ccccc3s2)c2c1C(c1ccc(F)c(F)c1)CC(=O)N2 (stereo unspecified)

# Next part:
Anaer choline gr | Anaer choline gr early | molecule
i | 0.56 | Cc1ccc(-n2nc(N3CCN(C(=O)c4cc5ccccc5[nH]4)CC3)ccc2=O)cc1
i | 0.18 | O=C(Nc1ccc2nc(N3CCC(N4CCCCC4)CC3)cc(C(=O)O)c2c1)c1ccc(Cl)cc1
i | -0.28 | Cc1noc(C)c1C1CCCN1C(=O)c1ccsc1 (stereo unspecified)
i | 0.05 | O=C(Nc1ccc2nc3n(c(=O)c2c1)CCCC3)Nc1ccccc1Br
i | 0.06 | Cc1cc2c(cc1S(=O)(=O)N1CCCC(C(=O)N3CCc4ccccc43)C1)OC(C)C(=O)N2 (stereo unspecified)

# Another view of 2 compounds above:
Cc1ccc(-n2nc(N3CCN(C(=O)c4cc5ccccc5[nH]4)CC3)ccc2=O)cc1
- Anaer choline gr: i
- Anaer choline gr early: 0.56
O=C(Nc1ccc2nc(N3CCC(N4CCCCC4)CC3)cc(C(=O)O)c2c1)c1ccc(Cl)cc1
- Anaer choline gr: i
- Anaer choline gr early: 0.18

# Compound activity as filed in PubChem BioAssay.
